Source: PubChem (National Center for Advancing Translational Sciences (NCATS))
PINK1 modulator: A Quantitative High throughput Screen to Identify Chemical Modulators of PINK1 Expression. PINK1 immunofluorescence, high-content cytometry, 24 h. Potency, µM (titrated, usually from 76.6 µM), for the others: top-dose activation (PINK1 increase), hits mostly activators. AID 624263, 2012. 410,000 compounds, 0.2% hits; active = well fitted activation curve with a large enough effect; inconclusive = small, poorly fitted or top-dose-only effect; inactive = flat fitted curve, though single readings scatter; cell line not stated here;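 note: potency is the fitted concentration of half-maximal effect; % of control where 0% means no effect; nearly all actives have a fitted effect of over 65% in size; a mitochondrial uncoupler was the plate control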
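Stable cell line treated 24 h with compounds at 5 concentrations (CCCP controls), then fixed and immunostained for PINK1 plus nuclear and cell stains; PINK1 immunofluorescence quantified by laser-scanning microplate cytometry.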
D2 ag: Beta-Arrestin HTS for Positive Allosteric Modulators of the Human D2 Dopamine Receptor: Agonists; D(2) dopamine receptor (Homo sapiens), P14416; DiscoveRx PathHunter D2 beta-arrestin, luminescence, 90 min; 100% = 57 uM dopamine signal; AID 624465, 2012; 360,000 compounds, 0.084% hits; activation, % (test concentration not listed); in the data active = activation above about 40%; inconclusive = about 15% to 40%; inactive = below about 15%; note: compound concentration not given in the record; the text of the record calls up to 30% inactive
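Agonist mode: compounds alone added to overnight-plated D2 PathHunter cells for 90 min at 37 C, with 57 uM final dopamine (EC100) defining full response. Beta-arrestin recruitment detected by chemiluminescent reagent, read after 1 h at ambient temperature.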
TRPML1 agonist: qHTS for Agonists of the Human Mucolipin Transient Receptor Potential 1 (TRPML1); Mucolipin-1 (Homo sapiens), Q9GZU1; TRPML1-expressing cells, Ca2+ dye fluorescence, FDSS; host cell line not named in the record; reference of the full effect not given here; activation, % (no concentration beside the values); 410,000 compounds, 0.12% hits; in the data active = activation above about 50%; inconclusive = about 30% to 50%; inactive = below about 30%; note: 0% is about no effect; the text of the record puts the active cut at 80%
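Kinetic FDSS Ca2+ read in Tet-induced TRPML1-DL cells (ABD Ca8 dye plus quencher, 45-90 min RT loading): baseline, then compound, then 110 s agonist window; EC80 agonist 54-4 at 4uM final added afterwards for a 110 s antagonist window.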
Six1-Eya2 inh: qHTS Assay for Inhibitors of the Six1/Eya2 Interaction; AlphaScreen GST-Six1/His-Eya2 binding, biochemical; active compounds read low; control for the full effect not named in the record; activity change, % (no concentration beside the values); 360,000 compounds, 0.56% hits; in the data active = activity change below about -65%; inconclusive = about -30% to -65%; inactive = above about -30%; note: % is set by controls: 0 for no effect and ±100 for the full control effect
Target sequence (O00167 whole entry, looked up): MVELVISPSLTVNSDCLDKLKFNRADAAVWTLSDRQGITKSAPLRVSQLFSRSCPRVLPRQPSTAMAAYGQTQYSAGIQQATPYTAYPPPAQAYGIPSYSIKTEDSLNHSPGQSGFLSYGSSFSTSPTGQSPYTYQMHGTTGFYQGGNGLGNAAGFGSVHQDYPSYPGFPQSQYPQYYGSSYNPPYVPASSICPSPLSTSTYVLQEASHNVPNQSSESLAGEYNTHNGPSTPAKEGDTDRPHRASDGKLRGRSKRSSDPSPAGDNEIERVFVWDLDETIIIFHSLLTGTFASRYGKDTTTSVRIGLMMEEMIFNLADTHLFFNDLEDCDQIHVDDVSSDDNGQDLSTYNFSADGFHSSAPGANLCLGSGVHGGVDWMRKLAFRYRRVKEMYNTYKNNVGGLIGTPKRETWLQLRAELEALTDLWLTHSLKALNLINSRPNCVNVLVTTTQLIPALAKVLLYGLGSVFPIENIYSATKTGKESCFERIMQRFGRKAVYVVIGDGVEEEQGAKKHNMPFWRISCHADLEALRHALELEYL
Target sequence (Q15475 whole entry, looked up): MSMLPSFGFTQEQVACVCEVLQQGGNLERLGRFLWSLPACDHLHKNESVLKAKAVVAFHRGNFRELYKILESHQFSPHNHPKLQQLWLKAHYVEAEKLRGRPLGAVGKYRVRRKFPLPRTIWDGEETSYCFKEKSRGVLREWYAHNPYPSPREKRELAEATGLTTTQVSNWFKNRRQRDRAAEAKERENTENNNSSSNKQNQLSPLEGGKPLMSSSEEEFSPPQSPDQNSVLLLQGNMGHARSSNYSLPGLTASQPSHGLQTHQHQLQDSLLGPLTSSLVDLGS
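Six1/Eya2 binding was read as AlphaScreen signal after compounds were pinned into GST-Six1 plus His-tagged Eya2 (5X stock 250/500 nM) in pH 8.0 Tris/NaCl/TCEP buffer, beads added, then incubated 1 h, 37 C, dark.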
CtBP-E1A blk: qHTS Assay for Inhibitors of the CtBP/E1A Interaction; CtBP / adenovirus E1A interaction (AlphaScreen); AlphaScreen GST-E1A/His-CtBP binding, 1536-well; active compounds read low; control for the full effect not named in the record; activity change, % (test concentration not listed); 340,000 compounds, 0.49% hits; in the data active means activity change below about -65%; inconclusive means about -30% to -65%; inactive means above about -30%; note: % is set by controls: 0 for no effect and ±100 for the full control effect
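Homogeneous bead-based format: GST-tagged E1A captured on glutathione donor beads, His-tagged CtBP on nickel acceptor beads; compounds precede bead addition by 2 h at 37 °C.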
D2 potentiator: Beta-Arrestin HTS for Positive Allosteric Modulators of the Human D2 Dopamine Receptor: Potentiators; D(2) dopamine receptor (Homo sapiens), P14416; DiscoveRx D2 beta-arrestin cells, luminescence, 90 min; 100% = 57 uM dopamine signal; potentiation, % (concentration not given with the values); 360,000 compounds, 0.23% hits; active = potentiation of 50% or more; inconclusive = 30% to 50%; inactive = 30% or less;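 note: tested on top of an EC20 dose of dopamine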
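D2 cells co-treated with compound plus 50 nM dopamine (EC20) for 90 min at 37 deg C to detect potentiation. Beta-arrestin recruitment was read as enzyme-fragment luminescence after 1 h at ambient temperature. Full response was set by 57 uM dopamine.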
An asterisk follows results filed as active; ? = inconclusive; / = not tested or not shown; & = joins results of further samples; [ ] = another dose, or the depositor's remark.

#	molecule	PINK1 modulator	D2 ag	TRPML1 agonist	Six1-Eya2 inh	CtBP-E1A blk	D2 potentiator
1	CC(=O)Nc1ccc(S(=O)(=O)N(C)CC(=O)Nc2ccc(Br)cc2F)cc1	2.4%	3.8	-0.3	6	-19	-12
2	Cc1c(NC(=O)C(C)OC(=O)c2cccc([N+](=O)[O-])c2)c(=O)n(-c2ccccc2)n1C (configuration not stated)	2.0%	0.4	-0.4	5	4	1
3	COc1cc2c(cc1OC)C1(CCCC1)CNC2c1cccc([N+](=O)[O-])c1 (configuration not stated)	-1.2%	-8.3	1.6	12	-5	-5
4	COc1ccc(Cc2nc(-c3ccc(Br)cc3)no2)cc1	/	-1.2	3.6	63	-8	18
5	Cc1nc2sccn2c(=O)c1S(=O)(=O)NCc1ccccc1	1.6%&0.7%	-4.5	-0.7&-0.2	2	-8	-4
6	CSCC[C@H](N)C(=O)N1CCC(C(=O)N[C@H](C(=O)NCc2ccccc2F)C(C)C)CC1	-1.1%	4.8	/	-2	2	4
7	CCN(C(=O)COC(=O)c1cc(C)oc1C)c1c(N)n(Cc2ccccc2)c(=O)[nH]c1=O	-1.9%	-2.2	-0.1	5	3	-1
8	COC(=O)[C@@]12CCCN1[C@H](c1ccc(-c3ccc(OC)cc3)c(OC)c1)[C@@H]1C(=O)N(C)C(=O)[C@@H]12	-0.1%	-1.9	-0.4	-6	-7	-8
9	CC(=O)Nc1ccc(C(=O)OCC(=O)/C(C#N)=C(\C)N)cc1	-0.6%	-0.2	0.1	6	0	10
10	COc1ccc(Nc2ccncc2[N+](=O)[O-])cc1	2.8%	-14	-0.8	1	-4	15
11	O=C(Cc1cccc(C(F)(F)F)c1)NCc1cccc(Cl)c1	-0.4%	-0.5	1.3	15	1	-15
12	CC(C)NS(=O)(=O)c1ccc(OCC(=O)Nc2ccc3c(c2)OCO3)c(Cl)c1	1.1%	0.9	0.9	-14	-12	0
13	CC(C)(C)N(NC(=O)Nc1ccc(F)cc1)C(=O)c1ccccc1	-0.1%	-8.9	1.0	-8	-22	0
14	COCCn1c(=O)[nH]c2cc(C(=O)Nc3cc(OC)c(OC)c(OC)c3)ccc2c1=O	1.5%	-0.3	0.0	-5	-13	15
15	N/C(=N\OC(=O)c1cccc(F)c1)c1ccccn1	1.3%	2.1	0.1	-4	/	1
16	O=C(CSc1ccccn1)N1CCN(c2cccc(Cl)c2)CC1	1.0%	-1.3	1.5	-3	5	-13
17	O=C1c2[nH]nc(-c3ccccc3O)c2C(c2ccc(F)cc2)N1CC1CCCO1 (configuration not stated)	-2.7%	-1.8	0.9	-8	6	-1
18	CCOC(=O)c1c(-c2ccc(F)cc2)csc1NC(=O)CN1C(=O)NC2(CCCCC2C)C1=O (configuration not stated)	4.3%	-4.4	0.3	-25	-4	11
19	O=C(NN=Cc1cccc2ccccc12)C(=O)NN=Cc1cccc2ccccc12	12%	-0.4	-0.5	1	-12	-2
20	COc1ccc(CN2CCN(C(=O)C3CCC(CNS(=O)(=O)c4ccccc4)CC3)CC2)c(OC)c1OC (configuration not stated)	1.9%	1.9	0.2	0	-2	-5
21	Cc1cc(NC(=O)c2ccc(COc3ccccc3Cl)o2)no1	8.9%	0.7	1.7	2	-9	-2
22	Cc1c(C(=O)Nc2cc(S(=O)(=O)N3CCOCC3)ccc2N2CCOCC2)oc2ccccc12	0.4%	-4.0	0.1	-11	7	-13
23	O=C1/C(=C\c2ccc(Cl)c(Cl)c2)CN(C(=O)CCN2CCOCC2)C/C1=C/c1ccc(Cl)c(Cl)c1	-5.9%	-6.5	1.5	0	-1	-19
24	CCCCNc1nc(N(C)c2ccccc2)nc(-n2ccnc2)n1	0.0%	0.2	0.9	-5	-1	0
25	COc1cccc(-c2nc(CS(=O)(=O)CC(=O)NCCCN3CCc4ccccc4C3)c(C)o2)c1	/	-2.7	0.4	4	-1	-8
26	CC12CCC(C(=O)NNc3ccccc3)(C(=O)C1=O)C2(C)C (configuration not stated)	-0.6%	-2.5	1.2	6	/	1
27	CC(C)c1cccc(C(C)C)c1NC(=O)CN1C(=O)NC2(CCCC2)C1=O	0.8%	1.5	-0.5	2	1	3
28	O=c1c(O)c(-c2ccc3c(c2)OCO3)oc2ccccc12	4.1%	-2.4	1.6	4	-1	3
29	CCN(/C=N/c1sc2c(c1C#N)CCCCC2)CC	5.2%	-5.1	2.3	-11	-10	7
30	COC(=O)c1cc(Br)c(=O)n(-c2cccc(F)c2)c1	0.4%	-4.3	-1.0	25	2	4

A different layout for some results above:
17	O=C1c2[nH]nc(-c3ccccc3O)c2C(c2ccc(F)cc2)N1CC1CCCO1 (configuration not stated)
  PINK1 modulator: -2.7%
  D2 ag: -1.8
  TRPML1 agonist: 0.9
  Six1-Eya2 inh: -8
  CtBP-E1A blk: 6
  D2 potentiator: -1

18	CCOC(=O)c1c(-c2ccc(F)cc2)csc1NC(=O)CN1C(=O)NC2(CCCCC2C)C1=O (configuration not stated)
  PINK1 modulator: 4.3%
  D2 ag: -4.4
  TRPML1 agonist: 0.3
  Six1-Eya2 inh: -25
  CtBP-E1A blk: -4
  D2 potentiator: 11

Following part
#	molecule	PINK1 modulator	D2 ag	TRPML1 agonist	Six1-Eya2 inh	CtBP-E1A blk	D2 potentiator
31	O=C(CCCN1C(=O)/C(=C/c2ccccc2Cl)SC1=S)NNC(=O)c1ccc(Cl)cc1	5.0%	0.6	/	19	10	6
32	O=c1cc(-c2ccccc2)c2cc(Cl)c(O)c(CN3CCOCC3)c2o1	-0.7%	-0.7	7.1	8	4	-8
33	CSc1ccc(OC2CCN(Cc3ccccc3)CC2)cc1	?	-4.4	1.7	-26	-6	-31
34	COc1ccc(Cl)c(S(=O)(=O)N2CCCC2)c1	0.7%	-1.6	0.4	11	10	-2
35	O=C(CCCCn1cnc2c(=S)nc[nH]c21)Nc1ccc(C(=O)O)c(O)c1	-0.5%	-5.8	0.7	-26	-20	-20
36	COC(=O)C1C(=O)NC(SC)=C(C#N)C1c1ccccc1 (configuration not stated)	-0.7%	-1.4	-0.5	-3	4	0
37	CCCCCCC[C@@H](C/C=C/CCC(=O)N(C)C/C(=C/Cl)C/C(=C\C(=O)N1CC(OC)=CC1=O)OC)OC	9.3%	-2.3	2.1	4	-3	-7
38	NC(=O)c1oc2ccccc2c1NC(=O)C1CC(=O)N(c2ccccc2)C1 (configuration not stated)	1.0%	0.6	-0.3	2	-11	-5
39	CCOC(=O)c1[nH]c(C)c(C(=O)OCC(=O)N2c3ccccc3CC2C)c1C (configuration not stated)	-2.2%[38.3 µM]	5.0	0.2	-2	-8	-3
40	COc1nc(OCC#N)nc(N2CCCCC2)n1	-0.6%	1.7	0.4	6	0	-1
41	OC(CNc1ccnc2cc(Cl)ccc12)CNC1CCCCC1 (configuration not stated)	-0.9%	4.2	2.9	11	-3	-9
42	O=C(CSc1nnc(Cc2ccccc2)o1)c1cc(F)ccc1F	0.1%	-2.2	1.2	-7	5	-26
43	COC(=O)C1=CN(CC2CCCO2)C=C(C(=O)OC)C1c1ccsc1 (configuration not stated)	-0.6%	0.3	1.3	7	9	2
44	CN(C)N1C(=O)c2c(Cl)c(Cl)c(Cl)c(Cl)c2C1=O	-2.1%	3.1	-0.4	-10	-19	-5
45	CC(C)(C)C(=O)NC1CC2CCCC(C1)N2C(=O)Nc1ccccc1Cl (configuration not stated)	-0.5%	10	-0.1	4	5	-1
46	COc1ccc(CCNC(=O)[C@H](C)NC(=O)[C@@H]2CSC3c4ccccc4C(=O)N32)cc1 (some centres not stated)	-1.9%	1.5	-1.2	-13	-2	-5
47	Nc1cccc(NC(=O)c2cccs2)c1	1.5%	3.7	0.0	-3	-2	3
48	Cc1cc(NS(=O)(=O)c2ccc(NC(=O)Nc3ccccc3)cc2)no1	0.1%	2.6	0.6	2	-11	-3
49	O=C(NC(=S)NNS(=O)(=O)c1ccccc1)c1ccc([N+](=O)[O-])cc1	-1.3%	6.0	0.8	-2	-16	24
50	CC(C)(C)C(O)(CC#CCN1CCCC1)c1ccccc1 (configuration not stated)	0.3%	0.9	0.6	4	0	-7
51	C/C(CS(=O)(=O)c1ccccc1)=N\O	-0.3%	-6.7	-1.0	8	4	-3
52	COc1cccc(NC(=O)C(=O)N2CCOCC2)c1	0.3%	0.6	0.1	5	0	4
53	CCOC(=O)c1sc(NC(=O)CSc2nnc(Cc3ccccc3)o2)c(C(=O)OCC)c1C	-4.4%[38.3 µM]	-1.1	1.3	-1	1	-4
54	O=C(CSc1nc(Nc2ccccc2)nc(N2CCOCC2)n1)NC1CCCCC1	0.7%	-2.3	1.2	-2	1	-5
55	CCOC(=O)C(NC(=O)Nc1ccc(O)cc1)(c1ccccc1)C(F)(F)F (configuration not stated)	0.9%	12	1.4	1	5	?
56	CCn1c2ccccc2c2cc(NC(=O)COC(=O)C3CCC(=O)N3)ccc21 (configuration not stated)	0.9%	-2.1	0.5	-9	0	-12
57	CCn1c(CC(=O)Nc2ccc(C)cc2)nnc1SCC(=O)N1CCOCC1	0.6%	-2.1	0.4	0	9	-5
58	Cc1cc(C(F)(F)F)c2c(N)c(C(=O)NCc3ccc(Cl)cc3)sc2n1	2.0%	/	0.2	40	15	/
59	O=C1CCC(C(=O)Nc2ccc(Cl)cc2)N1 (configuration not stated)	-0.3%	0.8	-0.2	-8	2	-13
60	O=C(/C=C/c1cccc([N+](=O)[O-])c1)Nc1ccc(Cl)cn1	7.9%	2.7	0.5	-8	/	-8
61	Cn1cccc1Cc1nnc(SCC(=O)Nc2ccc3c(c2)OCCO3)n1CCc1ccccc1	-4.2%	-3.5	0.1	-27	-20	-5
62	CCCCOC(=O)Nc1ccc(OC)cc1S(=O)(=O)N1CCOCC1	-1.3%	-4.4	-0.4	-3	8	1
63	CC(=O)C[C@H](O)CC(=O)[C@H]1OC(=O)[C@H](C)C/C=C\Cc2ccccc21	1.0%	-2.8	0.6	3	0	-4
64	COc1cccc(C(=O)OCC(=O)Nc2ccc3c(c2)OCCO3)c1	-1.1%	1.9	-0.7	2	5	-8
65	O=C(Nc1ncc(Cc2cccc(Cl)c2)s1)c1ccc([N+](=O)[O-])cc1	9.8%	-3.1	-0.3	-3	-16	-11
66	CCCNC(=O)C1(C)CCCN(C(=O)c2c(F)ccc(C)c2F)C1 (configuration not stated)	2.7%	6.4	-1.0	6	-7	-3
67	COc1cccc(NC(=S)NN=C2CCC(C(C)(C)C)CC2)c1 (configuration not stated)	5.2%	-3.2	6.1	?	-26	-9
68	CC(C)(C)CN1CCN(Cc2cccnc2)CC1CCO (configuration not stated)	0.2%	-4.0	0.5	-18	6	-7
69	Clc1cccc(Cc2nn[nH]n2)c1	-3.0%	-2.7	3.3	0	4	-2
